# SARS PLP yeast – blocks SARS-CoV papain-like protease in a yeast assay | 0.19% of 330,000 active | AID 485353 | Potency, µM (doses to about 32.9 µM), without a hit: top-dose activity, positive = growth rescue | S. cerevisiae expressing SARS-CoV PLpro, growth rescue; control for the full effect not named in the record; active means well fitted rising curve with a large enough effect; inconclusive means small, poorly fitted or top-dose-only effect; inactive means no such curve, though single readings can be large or run the other way; further: 0% is about no effect; nearly all actives have a fitted effect of over 55% in size; growth read by luminescence after 48 h
# RE007 growth inh – less growth of the S. pombe RE007 Vpr strain; AID 651644; S. pombe RE007 Vpr strain, BacTiter-Glo ATP luminescence, 24 h; control for the full effect not named in the record; 0.21% of 360,000 active; Potency, µM (doses to about 92.2 µM), for inactives: top-dose activity change, negative = less growth; active = well fitted falling curve with a large enough effect; inconclusive = small, poorly fitted or top-dose-only effect; inactive = no such curve, though single readings can be large or run the other way;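 further: on the % scale 0 is the no-effect control and ±100 the full control effect; nearly all actives have a fitted effect of over 50% in size; the assay follows cell death caused by Vpr and the record does not say whether a fall means rescue or toxicity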
#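 Fission yeast RE007 carrying one integrated HIV-1 vpr copy, seeded at OD 0.01 in PMG+AL medium with 23 nL pinned compound. Grown 24 h at 30 degrees; viability read by BacTiter-Glo luminescence after 5 min.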
# 2A StopGo – FMDV 2A StopGo reporter, luciferase signal. human cells with a luciferase reporter of 2A StopGo recoding; control for the full effect not named in the record. Potency, µM (series often up to 57.9 µM), for inactives: at the top dose signal change, negative = less light. 1.2% of 410,000 active. AID 1159524; active = well fitted falling curve with a large enough effect; inconclusive = small, poorly fitted or top-dose-only effect; inactive = no such curve, though single readings can be large or run the other way; tested in HEK293T cells; further: on the % scale 0 is the no-effect control and ±100 the full control effect; nearly all actives have a fitted effect of over 45% in size; luciferase light after 4 h
# The depositor's hits bear a star; ? = inconclusive; [ ] = another dose, or the depositor's remark. Potency means the concentration at half of the fitted maximal effect. A portion of the library, so the mix of outcomes need not match the whole.
SMILES,SARS PLP yeast,RE007 growth inh,2A StopGo
C=C(C)CNC(=S)N/N=C/c1ccc([N+](=O)[O-])cc1,4%,6%,3%
COc1cccc(CNc2ccc([N+](=O)[O-])cc2Cl)c1O,-12%,-2%,3%
COc1ccccc1S(=O)(=O)Cc1ccc(C(=O)NCC2CCCO2)o1 (stereo not given),2%,9%,6%
COc1ccc(C(=O)Nc2cccc(-c3csc(C)n3)c2)cc1S(=O)(=O)N1CCCC1,2%,2%,-24%
Cc1ccc(N2CC(C(=O)NNC(=O)c3ccc(F)cc3)CC2=O)cc1 (stereo not given),-11%,-10%,-9%
COc1ccccc1-c1nn(-c2ccccc2)cc1C(=O)NCC(c1ccco1)N1CCCC1 (stereo not given),3%,6%,-10%
Cc1cccc(NC(=O)COC(=O)c2cc(C)n(C3CC3)c2C)c1,-7%,-17%,-11%
N#Cc1ccc(/C=C/C(=O)c2ccc3c(c2)OCO3)cc1,-3%,-1%,-16%
COc1ccc(CCNC(=O)CSc2ccc(Br)cc2)cc1OC,0%,7%,-1%
Cc1ccsc1CN(C)C(=O)C(NC(=O)c1cccc(S(=O)(=O)N2CCOCC2)c1)C(C)C (stereo not given),-6%,-7%,-19%
CNC(C)C(=O)NC(C(=O)N1CCCC1C(=O)Nc1ccc2ncccc2c1)C(C)C (stereo not given),-5%,1%,-5%
C[C@H](CO)N1C[C@H](C)[C@@H](CN(C)C(=O)Nc2ccccc2)Oc2ccc(NC(=O)Nc3ccccc3)cc2C1=O,-2%,6%,-7%
Cc1noc(C)c1S(=O)(=O)NCc1cccc(Cl)c1,11%,5%,11%
CN(C)c1ccc(CCN2CCOCC2)cc1,3%,3%,43%[activator]
O=C(COC(=O)/C=C/c1ccc(Cl)cc1)NC1CCCC1,0%,-5%,3%
COc1cc2sc(-c3ccc(S(C)(=O)=O)cc3)c(C(=O)NCCCCO)c2cc1OC,1%,14%,-3%
N#CCC(=O)N/N=C/c1ccc(OCC(=O)Nc2ccc(F)cc2)cc1,0%,17%,-8%
CCCCn1c(SCC(=O)Nc2ccc3c(c2)OCCO3)nnc1C(CC)N(C)C (stereo not given),9%,-25%,0%
Cn1[nH]c(C(F)(F)F)c(C=NCc2ccc(Cl)cc2)c1=O,2%,9%,-22%
Cc1nc2nc(SCc3ccccc3)nn2c(C)c1C,18%,13%,43%[activator]
O=C(c1ccc2n[nH]nc2c1)N1CCN(c2ccc(C(F)(F)F)cn2)CC1,-41%,3%,?
CN(C(=O)COC(=O)c1ccc[nH]c1=O)C1CCCCC1,-1%,1%,8%
O=c1cccc2c1c1cc[nH]c3ccc(=O)n2c31,3%,-2%,-22%
CCN(CC)C(=O)[C@H]1CC(CC(=O)NCCCn2ccnc2)C(=O)N2CCc3c([nH]c4ccccc34)[C@]12C (stereo not given in full),-1%,-10%,-16%
CCCCNC(=O)c1ccc(NC(=O)CC2SC(N3CCCC3)=NC2=O)cc1 (stereo not given),-7%,10%,-13%
O=C(Cc1ccccc1)Nc1ccccc1N1CCCC1,0%,-21%,1%
CC(NC(=O)CN1C(=O)NC2(CCc3ccccc32)C1=O)c1ccc2c(c1)OCCO2 (stereo not given),0%,3%,-8%
O=C1C=C(c2ccc(Oc3ccccc3)cc2)C[C@@H](c2ccc(Cl)cc2)C1,-4%,1%,-16%
COc1cc(/C=C2\C(=O)NC(=O)N(c3ccc(C)cc3)C2=O)cc(OC)c1O,3%,0%,-13%
CN(C(=O)CSc1ncnc2sccc12)C1CCS(=O)(=O)C1 (stereo not given),2%,-14%,-20%
Cc1nn(-c2ccccc2)c(Cl)c1C(=O)NNC(=O)c1ccncc1,4%,5%,-2%
CC1CCc2c(sc(NC(=O)C3=COCCO3)c2C(N)=O)C1 (stereo not given),9%,5%,52%[activator]
O=C(COC(=O)c1ccccc1F)NC1CC1,-8%,2%,1%
CCOc1ccc(S(=O)(=O)NCCC(=O)NCC2COc3ccccc3O2)cc1 (stereo not given),-1%,1%,12%
CCCn1c(SCC(=O)NC2CCC(C)CC2)n[nH]c1=O (stereo not given),-1%,3%,-11%
O=C(CNS(=O)(=O)c1ccc(Cl)c(C(F)(F)F)c1)NC1CCCCC1,0%,5%,23%
COc1ccc(-c2ccc3c(c2)S(=O)(=O)c2cccc(C(=O)NCc4cccc(OC(F)(F)F)c4)c2C3=O)cc1OC,-29%,1%,0%
CCN(C(=O)CN1CCCCC1C)c1c(N)n(Cc2ccccc2)c(=O)[nH]c1=O (stereo not given),1%,0%,-8%
CN(c1ccccc1)S(=O)(=O)c1ccc(Cl)c(C(=O)Nc2ccncc2)c1,2%,-5%,?
CC(C)CNC(=O)COc1ncnc2sccc12,-6%,-5%,0%
O=C(COC(=O)/C=C/c1cccc(Br)c1)Nc1cccc(S(=O)(=O)NC2=NCCC2)c1,0%,-10%,-15%
Cc1nc(-c2ccc(F)cc2)c(CC(=O)NCC(=O)Nc2ccc(F)c(F)c2)s1,-5%,12%,-11%
C/C(=N/Nc1ccc(Cl)cc1)c1cnnc(-c2ccccc2)n1,1%,4%,18%
CCCNC(=O)N1CCN(S(=O)(=O)c2ccc3c(c2)OCCO3)CC1,0%,-11%,-13%
CC(C)CN(CC(C)C)C(=O)COn1nnc2ccc(S(=O)(=O)N3CCOCC3)cc21,-2%,-6%,-26%
CSC1=NCCN1S(=O)(=O)c1ccc2ccccc2c1,-7%,0%,-4%
O=C(NCc1ccco1)C(=O)NCC1OCCCN1S(=O)(=O)c1ccc(Cl)cc1 (stereo not given),0%,-9%,-5%
CCc1cc(C(=O)Nc2cc(S(=O)(=O)N(C)C)ccc2C)sc1C,1%,5%,?
CCOC(=O)/C=C/[C@H]1CCc2cccc(C)c2O1,-1%,-25%,0%
O=c1[nH]c(O)c(N=Nc2cc(C(F)(F)F)ccc2Cl)c(=O)[nH]1,0%,0%,-16%
O=C(COC(=O)/C=C/c1ccc(Br)o1)NC1CCCCC1,-1%,1%,-11%
C[C@H](CO)N1C[C@H](C)[C@@H](CN(C)C(=O)Nc2ccc3c(c2)OCO3)Oc2ccc(NS(=O)(=O)c3cn(C)cn3)cc2C1=O,2%,17%,-15%
COc1cccc(NC(=O)c2ccccc2)c1,-3%,-18%,53%[activator]
O=C(C1=CC=CN2CCS(=O)(=O)N=C12)N1CCN(c2cccc(Cl)c2)CC1,1%,-1%,-10%
COc1cc(OC)c(OC)cc1CNC(=O)c1cc(S(=O)(=O)N2CCOCC2)ccc1F,-1%,-2%,-14%
Cc1cc(C)c(NC(=O)CCCn2c(=O)oc3ccccc32)c(C)c1,-12%,2%,-23%
Cn1nc(C(=O)Nc2ccc(Cl)c(S(=O)(=O)N3CCOCC3)c2)c2ccccc2c1=O,2%,-5%,?
COc1ccc(CCNC(=O)CCS(=O)(=O)c2ccc(Br)cc2)cc1OC,0%,12%,-1%
CC1(NC(=O)Cc2csc(-c3ccc(Cl)cc3)n2)CCS(=O)(=O)C1 (stereo not given),1%,4%,-9%
CC(=O)c1ccc(S(=O)(=O)Nc2ccc3c(c2)OCO3)cc1,-1%,10%,42%[activator]

# Other structures
SMILES,SARS PLP yeast,RE007 growth inh,2A StopGo
Cc1cccc(C(=O)OCC(=O)NN2C(=O)NC3(CCCCC3)C2=O)c1,1%,-9%,-13%
O=C(COC(=O)CCC(=O)c1ccc(Cl)cc1)NCCc1ccccc1,-3%,-6%,-15%
CC1CCC2(CC1)NC(=O)N(NC(=O)c1cc3ccccc3o1)C2=O (stereo not given),-2%,4%,-10%
COc1ccc([C@@H]2CC=C(C(=O)O)[C@H](c3ccc(C)cc3)N2S(=O)(=O)c2ccccc2C)cc1,3%,8%,-1%
Cc1onc(-c2ccccc2Cl)c1C(=O)OCC(=O)N1CCCCC1,2%,-6%,7%
CCCc1cc(=O)[nH]c(SCC(=O)NCC2COc3ccccc3O2)n1 (stereo not given),9%,4%,-17%
O=C(COC(=O)C1CC1)Nc1ccc([N+](=O)[O-])cc1C(F)(F)F,-8%,-3%,-3%
CC(CC(C#N)(c1ccccc1)c1ccccc1)N(C)C (stereo not given),0%,-5%,-23%
COc1ccc(-c2c(-c3cc(OC)cc(OC)c3)n(C)c3ccc(-c4ccn[nH]4)cc23)cc1,-2%,3%,-20%
Cc1c(Cl)cccc1NC(=O)COC(=O)Cn1cnc2c1c(=O)n(C)c(=O)n2C,-1%,-2%,-3%
Cc1ccc(NC(=O)CN(C)C(=O)CCSc2ccc(F)cc2)cc1,-4%,-9%,0%
CC[C@]1(C(=O)OC)[C@H]2C(=O)N(Cc3ccccc3)C(=O)[C@H]2[C@H]2CN=C(SCC(=O)c3ccccc3)N21,8%,?,-7%
CNC(=O)c1ccc(NC(=O)c2cc(S(=O)(=O)N3CCOCC3)ccc2N2CCCC2)cc1,0%,2%,-8%
O=C(CSc1nccc(=O)[nH]1)Nc1ccc2ccccc2c1,4%,3%,5%
CC(=O)Nc1ccc(S(=O)(=O)N(C)CC(=O)Nc2ccc(F)c(F)c2F)cc1,-3%,-1%,-9%

# 16 entries from above, with two lines to a compound.
# Each structure is followed by: SARS PLP yeast, RE007 growth inh, 2A StopGo
- COc1ccc(-c2ccc3c(c2)S(=O)(=O)c2cccc(C(=O)NCc4cccc(OC(F)(F)F)c4)c2C3=O)cc1OC
→ -29%, 1%, 0%
- CCN(C(=O)CN1CCCCC1C)c1c(N)n(Cc2ccccc2)c(=O)[nH]c1=O (stereo not given)
→ 1%, 0%, -8%
- CN(c1ccccc1)S(=O)(=O)c1ccc(Cl)c(C(=O)Nc2ccncc2)c1
→ 2%, -5%, ?
- CC(C)CNC(=O)COc1ncnc2sccc12
→ -6%, -5%, 0%
- O=C(COC(=O)/C=C/c1cccc(Br)c1)Nc1cccc(S(=O)(=O)NC2=NCCC2)c1
→ 0%, -10%, -15%
- Cc1nc(-c2ccc(F)cc2)c(CC(=O)NCC(=O)Nc2ccc(F)c(F)c2)s1
→ -5%, 12%, -11%
- C/C(=N/Nc1ccc(Cl)cc1)c1cnnc(-c2ccccc2)n1
→ 1%, 4%, 18%
- CCCNC(=O)N1CCN(S(=O)(=O)c2ccc3c(c2)OCCO3)CC1
→ 0%, -11%, -13%
- CC(C)CN(CC(C)C)C(=O)COn1nnc2ccc(S(=O)(=O)N3CCOCC3)cc21
→ -2%, -6%, -26%
- CSC1=NCCN1S(=O)(=O)c1ccc2ccccc2c1
→ -7%, 0%, -4%
- O=C(NCc1ccco1)C(=O)NCC1OCCCN1S(=O)(=O)c1ccc(Cl)cc1 (stereo not given)
→ 0%, -9%, -5%
- CCc1cc(C(=O)Nc2cc(S(=O)(=O)N(C)C)ccc2C)sc1C
→ 1%, 5%, ?
- CCOC(=O)/C=C/[C@H]1CCc2cccc(C)c2O1
→ -1%, -25%, 0%
- O=c1[nH]c(O)c(N=Nc2cc(C(F)(F)F)ccc2Cl)c(=O)[nH]1
→ 0%, 0%, -16%
- O=C(COC(=O)/C=C/c1ccc(Br)o1)NC1CCCCC1
→ -1%, 1%, -11%
- C[C@H](CO)N1C[C@H](C)[C@@H](CN(C)C(=O)Nc2ccc3c(c2)OCO3)Oc2ccc(NS(=O)(=O)c3cn(C)cn3)cc2C1=O
→ 2%, 17%, -15%

# More results:
SMILES,SARS PLP yeast,RE007 growth inh,2A StopGo
O=C1NC(c2ccccc2)=CC(c2ccccc2O)N1 (stereo not given),0%,9%,-15%
C/C(CC(=O)Nc1ccccc1Cl)=N\NC(=O)C(=O)NCCO,-7%,-12%,4%
O=C(C[C@H]1C/C=C\CC[C@@H](Cc2ccc(F)cc2)C(=O)OC[C@H]2CCCN2C1=O)N[C@@H](CO)Cc1ccccc1,3%,-8%,?
CC(NC(=O)COC(=O)c1ccc(OCC2CCCO2)cc1)c1ccccc1Cl (stereo not given),-4%,0%,-4%
CCCCCCSc1ccc([C@@H]2[C@@H]3C(=O)N(C)C(=O)[C@@H]3[C@]3(C(=O)OC)CCCCN23)cc1,-19%,-11%,0%
C/C(=N\NC(=O)c1cccnc1)c1cccc([N+](=O)[O-])c1,1%,3%,-2%
CCN(C[C@H]1N[C@@](Cc2ccccc2)(C(=O)OC)[C@H]2C(=O)N(C)C(=O)[C@@H]12)C(C)=O,3%,2%,7%
Cc1cc(C(=O)NC(=S)Nc2cccc(C(=O)O)c2C)ccc1[N+](=O)[O-],0%,4%,43%[activator]
O=C(Nc1ccc(Br)cn1)c1ccc(COc2c(F)c(F)cc(F)c2F)o1,-3%,0%,-16%
Oc1ccc(Cl)cc1CNCc1ccc(F)c(F)c1,3%,-4%,14%
CCc1ccc2nc(NC(=O)C3CCN(c4ncnc5sc(C)c(C)c45)CC3)sc2c1,-5%,-9%,13%
CN(CC(=O)Nc1ccc(F)c(F)c1F)C(=O)C1CCCCC1,1%,-1%,-12%
COc1cc(/C=C2\Oc3ccc(C#Cc4ccc(O)cc4)cc3C2=O)cc(OC)c1,0%,-7%,?
COc1ccc(C#Cc2c(C=O)n(C)c3ccccc23)cc1,-3%,10%,0%
Cc1cccc(NC(=O)c2nc[nH]c2C(=O)NCc2ccccc2)c1,4%,0%,-12%
COCCn1c(SCC(=O)NNC(=O)c2cc(Cl)ccc2OC)nnc1-c1ccncc1,2%,5%,2%

# Bioassay records (PubChem BioAssay)
